Compound activity deposited in PubChem by Center for Chemical Genomics, University of Michigan.
TAR Tat displ = HIV-1 TAR-Tat binding disruption. HIV-1 TAR RNA, Tat peptide displacement FRET; active compounds read high. z-score (concentration not given with the values). hit rate 0.6% among 100,000;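 further: score is relative to mean and SD of negative controls; some compounds called inactive have numbers as strong as hits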
CDC25B CDK2 inh = human CDC25B-CDK2/CyclinA binding inhibition. P30305+P24941. HTRF CDC25B-CDK2/CyclinA binding, anti-His/anti-Flag; active compounds read high. AID 1259370. hit rate 0.72% among 94,000. z-score (test concentration not listed);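 further: score is relative to mean and SD of negative controls; strong numbers were not always called active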
* = called active by the depositor; · = no result given.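 How the source made its calls: active means z-score from 3 up in half or more of its runs; inactive means the rest.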

Sequence of screens – TAR Tat displ	CDC25B CDK2 inh
- CC1(C(=O)NC2CCCC2)CCC(=O)N1Cc1cccnc1 (centres undefined)
 : -0.36	0.57
- COc1ccc(CNc2c(S(=O)(=O)c3ccc(OC)cc3)cnc3ccc(OC)cc23)cc1
 : 1	0.69
- O=C(CCCn1c(=O)c2cccn2c2ccccc21)NC1CCCCC1
 : 0.74	·
- COc1cccc(Nc2nc(N)nc(CN3CCc4ccccc4C3)n2)c1
 : -0.7	-1.1
- CC(C(=O)N1CCc2ccccc21)N1Cc2ccccc2C1=O (centres undefined)
 : -0.37	·
- CC(C)Cc1cc(C(=O)N2CCC3(CC2)Nc2cc(F)ccc2-n2cccc23)no1
 : -2.8	-2.4
- O=C(Nc1ccccc1)Nc1ccccc1Sc1c(Cl)cncc1Cl
 : ·	-2.4
- Cn1ccc2cc(S(=O)(=O)N3CCCN(C(=O)Nc4ccc(Br)cc4)CC3)ccc21
 : 0.62	·
- Cn1nnnc1SCCNCc1cc(Br)ccc1OCc1ccccc1
 : -0.04	-2
- Nc1c(-c2nc(-c3ccc(F)cc3)no2)nnn1-c1ccc(F)cc1
 : -1	·
- CN(Cc1ccccc1)C(=O)[C@H]1[C@@H]2C[C@@H]3[C@H]1C(=O)O[C@@H]3C2
 : -0.31	-0.84
- O=S(=O)(NC1CCCCC1N1CCC(O)CC1)c1ccc(Cl)cc1 (centres undefined)
 : 1.2	-4
- COc1ccc(-c2nc(SCc3cc(=O)n4[nH]cnc4n3)n[nH]2)cc1
 : 1.9	·
- Cc1cc(NCc2cccnc2)n2nc(C(F)(F)F)c(-c3ccc(Cl)cc3)c2n1
 : 0.73	-2.5
- CN1C(C(=O)Nc2sc3c(c2C#N)CCC3)=CC(c2ccco2)=NS1(=O)=O
 : 6.1*	-0.91
- Cc1cc(C)nc(SCCn2c(N3CCCC3)nc3c2c(=O)n(C)c(=O)n3C)n1
 : 0.06	0.25
- CCn1c(=O)sc2cc(S(=O)(=O)N3CCc4ccccc4C3)ccc21
 : 1	·
- CC(C)=CCc1c2c(c3occ(-c4ccc(O)cc4)c(=O)c3c1O)C=CC(C)(C)O2
 : 1.2	·
- O=C(CSc1n[nH]c(=O)n1-c1cccnc1)N1CCOCC1
 : ·	-1.5
- Cn1c(=O)c2c(ncn2CC(O)CN2CCN(c3ccccc3)CC2)n(C)c1=O (centres undefined)
 : ·	-1.2
- O=[N+]([O-])c1cnc(-n2cccc2)s1
 : ·	-3
- Cc1ccc(C2NC(c3ccc(C)cc3)C(C)C(=O)C2C)cc1 (centres undefined)
 : 1.8	·
- CC(C)(O)C(O)Cc1cc(/C=C2\OC(=O)C(c3cc4c(cc3O)OC(C(C)(C)O)C4)=C2O)ccc1O (centres undefined)
 : 1.2	·
- O=S(=O)(NCc1ccccn1)c1ccc2ccccc2c1
 : ·	-2
- CC1(C)COC(c2sccc2C(=O)N(C(=O)NC2CCCCC2)C2CCCCC2)=N1
 : ·	-1.2
- CN1CCN(CCN2C(=O)c3cc4sccc4n3CC2(C)C(=O)NC2CCCCC2)CC1 (centres undefined)
 : 1.8	-2.5
- CCOCCCNC(=O)c1cnn2c3c(cnc12)CCCCCC3
 : 1.3	·
- Cc1ccc(C(CNC(=O)c2cc(=O)c3ccc(Br)cc3o2)N2CCC(C)CC2)o1 (centres undefined)
 : 1	-1.3
- COC(=O)c1ccc(CSc2nc3ccncc3n2Cc2ccccc2F)cc1
 : 0.68	-3.1
- CCOc1ccc(-c2c(C)[nH]n3c(=O)c(N4CCC(C)CC4)c(C)nc23)cc1OCC
 : 1.6	-2.9
- C=CCNC(=O)CCc1nc2sc3c(c2c(=O)[nH]1)CCCC3
 : -1.2	-1.6
- O=C(O)c1ccc2c(c1)C(=O)N(c1cccc(-c3nnc(-c4ccccc4)o3)c1)C2=O
 : ·	-1.2
- Cc1cc(=O)n2nc(N(C)CC(=O)NCCC(C)C)sc2n1
 : 11	-0.12
- Cc1nc(-c2ccc(S(=O)(=O)NCc3ccc(F)cc3)cc2)co1
 : -1.4	·
- Cc1ccc(-c2cc(=O)n(-c3nc4ccccc4[nH]3)[nH]2)cc1
 : -0.62	-1.2
- Cc1ccc2c(=O)cc(CSc3ccccc3)[nH]c2c1C
 : -1.4	·
- C=C(NCc1ccncc1)c1ccc(Cl)cc1
 : ·	0.07
- CC(C)OC(=O)C1C(=O)CC(C)(O)C(C(=O)OC(C)C)C1c1ccccn1 (centres undefined)
 : ·	-1
- O=C(O)c1coc2c1C(=O)CCC2
 : ·	-2.4
- Cc1c(Br)c([N+](=O)[O-])nn1CC(=O)Nc1nc2ccccc2n1C
 : 1.9	·
- CC(C)CCNC(=O)Nc1ccc2nc(NS(C)(=O)=O)sc2c1
 : 1.3	·
- Cc1cc(C)cc(N2C(=O)C3CCCN3C2=S)c1 (centres undefined)
 : ·	-3.1
- Cc1ccc(N(C)c2cc(C)nc3nc(-c4ccco4)nn23)cc1
 : 1.3	·
- CCOC(=O)C1CCN(c2nc3ccc(C)cc3n3nnnc23)CC1
 : -0.09	·
- CCOC(=O)c1noc2nc(C)nc(Nc3ccc(OCC)cc3)c12
 : 0.17	·
- Cc1cc(C)c2c(n1)sc1c(=O)n(-c3ccccc3)nnc12
 : 1.2	-1.3
- Cc1nn(C)c(C)c1CNS(=O)(=O)c1ccc(C(C)(C)C)cc1
 : 0.64	·
- CC1(C)C(=O)OC(C(=O)c2ccc(Br)cc2)C2(CCCCC2)C1=O (centres undefined)
 : ·	-1.7
- CCCN1CCN(c2c(-c3cc(C)c(C)cc3C)c(=O)c2=O)CC1
 : -0.19	·
- O=C(Nc1ccc(Cl)cc1)Oc1ccc(-c2csnn2)cc1
 : ·	-0.24
- CC(C)N(CCNc1nc2ccccc2c2nc(-c3cccnc3)nn12)Cc1ccco1
 : ·	-0.76
- COc1nn2nnnc2c2ccccc12
 : 0.17	-0.77
- FC(F)(F)c1cccc(NC(=S)N2N=C3c4ccccc4CCC3C2c2ccccc2Cl)c1 (centres undefined)
 : ·	-4.8
- O=c1[nH]c2cc3c(cc2c(=O)n1Cc1nc(-c2cccc(Br)c2)no1)OCO3
 : 0.23	·
- CNS(=O)(=O)c1cn(CC(=O)NCCC(C)C)cc1S(=O)(=O)NC
 : 0.09	·
- COc1ccc(C(=O)CSc2nc(SCC(=O)c3ccc(OC)cc3)c3ccccc3n2)cc1
 : ·	-1.6
- N#CC1=C(N)Oc2n[nH]c(-c3ccccc3)c2C1c1ccco1 (centres undefined)
 : 0.12	-2.7
- CCNC(=O)C1CCCN1c1nnc(N2CCCC2=O)s1 (centres undefined)
 : 1.9	-1.4
- CC1=C(C(=O)OC2CCCCC2)C(c2ccccc2)C2=C(CC(C)(C)CC2=O)N1 (centres undefined)
 : 1.8	-0.97
- COCCCN(Cc1cccs1)S(=O)(=O)c1cc(-c2cc(C)no2)ccc1C
 : 1.3	·

The list goes on.
Sequence of screens – TAR Tat displ	CDC25B CDK2 inh
- CCc1nc(-c2csc(S(=O)(=O)Nc3ccc(Cl)cc3F)c2)no1
 : -0.17	·
- COc1ccccc1OCCCSc1nc(-c2ccccc2)nc2cc(=O)[nH]n12
 : 0.31	·
- O=S(=O)(c1ccc(-c2cnc(C3CC3)o2)cc1)N1CCN(c2ccccc2)CC1
 : 0.88	·
- CC1CCN(c2ncnc3c2cnn3-c2cccc(Cl)c2)CC1
 : 1.5	·
- CCOC(=O)N1CCN(S(=O)(=O)c2ccc3c(c2)CCN3C(=O)C2CCC2)CC1
 : -0.53	·
- O=C(CSc1ccc2nnc(-c3ccccc3)n2n1)c1ccccc1
 : ·	-1.6
- C/C(=N\OC(=O)c1ccccc1)c1csc(COc2ccc(Cl)cc2)n1
 : ·	-1.4
- Cc1nc2c(c(Nc3c(C)n(C)n(-c4ccccc4)c3=O)n1)CCC2
 : 0.5	1
- COc1cc2c(cc1OC)CN(S(=O)(=O)c1cc(Cl)ccc1OC)CC2
 : 0.34	-1.1
- CC/C(C)=N/NC(=O)c1ccncc1
 : ·	-2.4
- Cc1cc2c3c([nH]c2cc1S(=O)(=O)NCCc1ccco1)CCCC3=O
 : 4.9	·
- O=C(O)c1ccc(Nc2nc(-c3ccccc3)c3ccccc3n2)cc1
 : -0.15	-1.6
- CCCNC(=O)NC1CCN(c2cc(C)nc3ncnn23)CC1
 : 1.1	-0.68
- CCOC(=O)N1CCC(Nc2c(NC3CCCCC3)c(=O)c2=O)CC1
 : 1.1	1.6
- CCOc1cc(/C=C2\SC(=S)N(CCS(=O)(=O)O)C2=O)ccc1O
 : ·	-3.3

4 of the compounds above, with each value named.
CCc1nc(-c2csc(S(=O)(=O)Nc3ccc(Cl)cc3F)c2)no1
  TAR Tat displ: -0.17; CDC25B CDK2 inh: ·

COc1ccccc1OCCCSc1nc(-c2ccccc2)nc2cc(=O)[nH]n12
  TAR Tat displ: 0.31; CDC25B CDK2 inh: ·

O=S(=O)(c1ccc(-c2cnc(C3CC3)o2)cc1)N1CCN(c2ccccc2)CC1
  TAR Tat displ: 0.88; CDC25B CDK2 inh: ·

CC1CCN(c2ncnc3c2cnn3-c2cccc(Cl)c2)CC1
  TAR Tat displ: 1.5; CDC25B CDK2 inh: ·

(next part)
Sequence of screens – TAR Tat displ	CDC25B CDK2 inh
- CN(C)CCCN(C(=O)COc1ccccc1)c1nc2c(F)cccc2s1
 : 0.57	·
- Cc1ccc(S(=O)(=O)Nc2ccc(O)c(S(=O)(=O)c3ccc(C)cc3)c2)cc1
 : 0.48	-0.32
- O=C1C(=O)N(CCc2ccccc2)c2ccccc21
 : 0.77	1.8
- O=C(NCCCO)C(=O)Nc1c2c(nn1-c1ccc(F)cc1)CSC2
 : 0.84	·
- CC(=O)N1c2c(cc(Br)cc2S(=O)(=O)CCC(=O)NC2CCCCCC2)CC1C (centres undefined)
 : ·	-1.1
- COc1ccccc1N1CCN(C/C(N)=N/O)CC1
 : ·	-1.4
- Fc1cc(F)cc(-c2noc3ncnc(NCCN4CCOCC4)c23)c1
 : 1.1	·
- CCCCNc1nc2ccccc2c2nc(CCn3c(C)nc4ccccc43)nn12
 : 2.4	-0.29
- Cc1c(C(=O)N(Cc2ccco2)c2ccccn2)oc2ccc(F)cc12
 : 0.24	-1.3
- COc1ccc(S(=O)(=O)Nc2ccc(-c3ccc(N4CCCC4)nn3)cc2)cc1F
 : 1.2	·
- Cc1cc(C)nc(-n2nc(C)c3c2NC(=O)CC3c2c(F)cccc2Cl)n1 (centres undefined)
 : -0.53	-1.6
- COc1ccc2nc(NC(=O)CS(=O)(=O)c3cccc4nsnc34)sc2c1
 : 0.08	·
- CCc1ccn2cc(-c3cc(-c4ccccc4)no3)nc2c1
 : ·	-1.5
- O=C(CSc1ncc(S(=O)(=O)c2ccc(Cl)cc2)c(=O)[nH]1)Nc1ccccc1
 : 1.1	-1.4
- C=CCN1C(=O)N(CC=C)c2cccc3cccc1c23
 : ·	-1.8
- CC(=O)Nc1ccc2nc3c(=O)n(C4CCCCC4)c(=O)[nH]c3nc2c1
 : -4.7	0
- COc1ccccc1NC(=O)C1Nc2ccccc2S(=O)(=O)N1 (centres undefined)
 : -0.09	·
- CC(C)CC1C(C#N)=C(N)Oc2n[nH]c(-c3ccccc3)c21 (centres undefined)
 : 1.3	-0.88
- O=S(=O)(NCCc1csc2nc(-c3ccc(Cl)cc3)nn12)c1ccc(Br)cc1
 : 1.4	·
- Cc1cccc(NC(=O)c2cc3c(=O)[nH]c4ccccc4c3s2)n1
 : ·	-2.8
- CS(=O)(=O)Nc1nc2ccc(NC(=O)c3cc(-c4ccncc4)nc4ccccc34)cc2s1
 : 1.2	·
- NC[C@@H]1O[C@H](C23CC4CC(CC(C4)C2)C3)Cc2c1ccc(O)c2O
 : ·	-1.5
- O=C1CCCc2cc(S(=O)(=O)NCC3CCC(C(=O)NCc4ccco4)CC3)ccc2N1 (centres undefined)
 : 0.05	·
- COc1ccc(C)c2c1CCC2
 : ·	-1.7
- COc1ccc2nc(N)sc2c1
 : 1.3	-2.3
- O=C(NC1CCCC1)C(=O)c1c[nH]c2ccccc12
 : ·	-1.9
- O=C(NCc1ccccc1Br)c1cc2cccc3c2n1CCS3
 : 1	·
- CS(=O)(=O)Nc1cc(-c2nnc(Nc3ccc(O)cc3)c3ccccc23)ccc1N1CCOCC1
 : -0.23	-0.93
- Cc1cc(F)ccc1S(=O)(=O)NCC(c1cccnc1)N1CCc2ccccc21 (centres undefined)
 : 0.88	-0.7
- COc1ccccc1-c1nnc2sc(CCc3ccccc3)nn12
 : 1.9	-0.89
- CN(C)Cc1c(O)ccc2c(=O)c(-c3ccccc3Cl)c(C(F)(F)F)oc12
 : -0.53	-0.38
- CC1=C(C(N)=O)C(c2ccccc2Cl)n2nnnc2N1 (centres undefined)
 : -0.03	-0.36
- COc1ccc(CN2C(=O)C(=O)c3cc(Br)cc(C)c32)cc1OC
 : 1.5	-0.82
- COc1ccccc1OCCCn1c(=O)oc2ccccc21
 : 2.1	-2.9
- CN(Cc1cc(=O)n2nc(C3CC3)sc2n1)c1ccccc1
 : 0.5	·
- O=C1CCSc2ccc(S(=O)(=O)Nc3ccc(Br)cc3F)cc2N1
 : -1.3	·
- O=S(=O)(Nc1ccc(-c2ccno2)cc1)c1ccc2[nH]c3c(c2c1)CCCC3
 : -6.8	·
- Cn1c(=O)oc2cc(S(=O)(=O)Nc3ccc4c(c3)OCCO4)ccc21
 : ·	-1.3
- COC(=O)c1cccc(N2CC(O)=C(c3nc4ccccc4[nH]3)C2=N)c1
 : 0.7	-1.9
- O=S(=O)(Nc1ccc(N2CCCS2(=O)=O)cc1)c1ccc2c(c1)OCCO2
 : 1.3	·
- O=C(CN1CCSc2ccccc21)NCC1CCCO1 (centres undefined)
 : 0.6	·
- Cc1cc(=O)oc2cc(NC(=O)c3noc4c3COc3ccccc3-4)ccc12
 : ·	-2.3
- C=CCN[C@H]1CS(=O)(=O)C[C@@H]1S(=O)(=O)c1ccc(C)cc1
 : 0.26	0.51
- CCCCNS(=O)(=O)c1ccc2c(c1)CC(C)N2C(=O)CC (centres undefined)
 : -1.1	·
